Vaccinia mCherry – qHTS for Stage-Specific Inhibitors of Vaccinia Orthopoxvirus: mCherry Reporter Primary qHTS | Vaccinia virus mCherry reporter infection, fluorescence; about a quarter of the inactives have no number | Potency, µM (highest dose often 36.5 µM), without a hit: top-dose activity change, negative = inhibition, most hits filed as inhibitors | actives 0.63% (n = 310,000); active = well fitted inhibition curve with a large enough effect; inconclusive = small, poorly fitted or top-dose-only effect; inactive = no such curve, though single readings can be large or run the other way; tested in A549 cells; note: nearly all actives have a fitted effect of over 35% in size; inactives centre near -10
Vaccinia Venus – qHTS for Stage-Specific Inhibitors of Vaccinia Orthopoxvirus: Venus Reporter Primary qHTS | Potency, µM (top dose mostly 36.5 µM), for inactives: top-dose activity change, negative = inhibition, actives largely listed as inhibitors | Vaccinia virus Venus reporter expression, fluorescence | actives 0.46% (n = 330,000); active means well fitted inhibition curve with a large enough effect; inconclusive means small, poorly fitted or top-dose-only effect; inactive means no such curve, though single readings can be large or run the other way; tested in A549 cells; note: nearly all actives have a fitted effect of over 30% in size; inactives centre near -10
* marks the source's active call; other numbers are inactive results; i = inactive; ? = inconclusive; . = no result given; & = joins results of further samples. % is set by controls: 0 for no effect and ±100 for the full control effect; potency is the fitted concentration of half-maximal effect. Compounds as they come, and some 0.87% of all compounds hit somewhere here.

Value order: Vaccinia mCherry	Vaccinia Venus
> CCCCCCCCN1C(=O)[C@H](CC(=O)NCc2ccc(C)o2)C[C@@]2(C(=O)OC)CC(C)(C)CC=C12
  -18%	-26%
> c1ccc2c(c1)OCC(CNc1ncnc3sccc13)O2 (configuration not stated)
  ?	-21%
> CC(C)(C)OC(=O)CNC(=O)c1nc[nH]c1C(=O)N1CCc2ccccc2C1
  i	-13%
> CCSc1ncc(/C=N/Nc2ccc(F)cc2)n1C
  .	0%
> CCOC(=O)c1cccc(NC(=O)c2ccc3nc(Cc4ccccc4)oc3c2)c1
  -20%	-21%
> COc1cc(NC(=O)CCCN2C(=O)CCn3nc(-c4cn(C)c5ccccc45)cc32)cc(OC)c1
  -24%	-21%
> COc1ccc(Cl)cc1NC(=O)c1[nH]c(C)c(C(C)=O)c1C
  -3%	-16%
> CN(C)S(=O)(=O)c1cccc(C(=O)OCC(=O)N2c3ccccc3NC(=O)C2(C)C)c1
  -10%	3%
> N#CCOC(=O)C1CCN(S(=O)(=O)c2ccc3c(c2)OCCO3)CC1
  -15%	-4%
> CCCCNC(=O)c1onc(CS(=O)(=O)c2ccccn2)c1C(=O)NCCCC
  -14%	-4%
> Cc1ccc2nc3c(cc(C(=O)NCCN4CCOCC4)c(=N)n3CCCN3CCOCC3)c(=O)n2c1
  -8%	-7%
> O=C(CCSCCc1ccccn1)Nc1ccccn1
  .	-11%
> COC(=O)C1=C(C)N(C)C(C)=C(C(=O)OC)C1c1ccc(F)c(Br)c1
  .	-9%
> COc1cc(C(=O)Nc2ccc(-n3cnnn3)c(C)c2)cc(OC)c1OC
  i	-10%
> O=c1c(-c2ccccc2)nc2ccccc2n1C(c1ccccc1)c1nc2ccccc2[nH]1 (configuration not stated)
  -28%	-12%
> O=C1OCc2ccc(NC(=O)c3c(F)cccc3Cl)cc21
  -17%	-4%
> Cc1cccc(C)c1NC(=O)CSc1nc(C2CC2)nc2ccccc12
  1%	-8%
> CCOc1ccc(C2C(C(N)=O)=C(C)Nc3nc(-c4cccc(Cl)c4)nn32)cc1OC (configuration not stated)
  -12%	-18%
> COC(=O)c1cc(NC(=O)c2ccccc2F)cc(C(=O)OC)c1
  i	-9%
> COc1cc(=O)n2c(c1C(=O)NC(C)c1ccco1)CCN(Cc1cc3ccccc3o1)CC2 (configuration not stated)
  -8%	12%
> COc1ccc(S(=O)(=O)N2CCCCCC2)cc1C(=O)N(C)Cc1cccs1
  -20%	-14%
> Cc1ccnc2ccc(-c3nc4ccccc4o3)cc12
  i	-7%&-9%
> O=C(COc1ccc2c(-c3ccccc3)cc(=O)oc2c1)NCC1CCC(C(=O)O)CC1 (configuration not stated)
  -5%	-7%
> CC(=O)c1cc(NC(=O)c2ccc(C)cc2)c(=O)oc1C
  i	-3%
> CS(=O)(=O)c1ccc(C(=O)OCC(=O)N2CC(=O)Nc3ccccc32)cc1[N+](=O)[O-]
  -21%	-20%
> CCOc1ccc(CN2C(=O)c3ccccc3Sc3ccc(C(=O)NCCCN4CCOCC4)cc32)cc1
  -21%	-20%
> Cc1ccccc1N1CC(C(=O)N2CCCCCC2)CC1=O (configuration not stated)
  -11%	-7%
> CC(=O)N/C(=C\c1ccccc1)C(=O)OCC(=O)N1CCCCCC1
  -6%	-5%
> Cn1cncc1COC(=O)c1ccc(Cl)cc1
  i	-12%
> COC(=O)/C=C1\NC(=O)C(C)S1 (configuration not stated)
  i	15%
> O=C(CN1C(=O)c2cccc3cccc1c23)NCC1CCCO1 (configuration not stated)
  .	-12%
> O=S(=O)(/N=C(/Nc1cccc2ccccc12)c1ccccc1)c1ccccc1
  ?	2%
> Nc1nc(-c2ccc(C(=O)O)cc2)cs1
  -3%	-2%
> O=C(O)CC1CCC(=C(Cl)Cl)C1 (configuration not stated)
  0%	1%
> Cc1ccc(NC(=O)c2sc3nc4c(c(-c5ccco5)c3c2N)CCC4)cc1
  -19%	-19%
> COc1cccc(N2CC(C(=O)NCc3n[nH]c(=O)c4ccccc34)CC2=O)c1 (configuration not stated)
  i	-9%
> O=C(Nc1ccccc1Cl)c1cc(C2CCCCN2C(=O)CCCc2ccccc2)on1 (configuration not stated)
  i	9%
> O=C(N/N=C\c1ccc(CN(Cc2ccc(Cl)cc2)S(=O)(=O)c2ccccc2)o1)C(=O)Nc1ccc(F)cc1
  -33%	?
> Cc1cc2cc(C)c(NCCNC(=O)c3ccccc3)nc2cc1C
  -12%	-23%
> Cn1nnc2c(N3CCN(Cc4ccccc4)CC3)ncnc21
  -26%	-19%
> COc1ccc(CNc2ncnc3nc[nH]c23)cc1
  -26%&-15%	-16%&-19%
> O=C(CSc1oc(-c2cccs2)nc1S(=O)(=O)c1ccccc1)Nc1ccc(F)cc1
  -15%	-12%
> COc1ccc(Nc2ccc3ccccc3c2)cc1
  ?	-3%
> Cc1nc2oc3ccc(F)cc3c(=O)c2cc1C(=O)O
  i	-7%
> COc1ccc(CCNC(=O)Nc2nnc([C@H]3C[C@H](O)[C@@H](CO)O3)s2)cc1OC
  -9%	-3%
> COCCCN1C(=O)C(CC(=O)NC(c2ccccc2)c2ccccc2)CC(C(=O)N2CCOCC2)=C1C (configuration not stated)
  -9%	-4%
> CCCCOc1ccc(Cc2c(O)nc(SC)[nH]c2=O)cc1
  -4%	-3%
> COc1ccc(N2CCN(S(=O)(=O)c3csc(C(N)=O)c3)CC2)cc1
  -11%	-1%
> CC1(C)CC(=O)N(CC(=O)NCc2ccccc2)c2ccccc2S1(=O)=O
  9%	-1%
> CCOC(=O)NC(=O)CSc1nc(-c2ccc(C)c(C)c2)cn1-c1ccccc1
  ?	-25%

The list continues.
Value order: Vaccinia mCherry	Vaccinia Venus
> Cc1cccc(CCNC(=O)C2CCC(=O)N(Cc3ccc(Cl)cc3)C2)n1 (configuration not stated)
  i	-1%
> COC(=O)C(Cc1ccccc1)NS(=O)(=O)c1ccccc1Br (configuration not stated)
  i	4%
> O=C(CN1CCC(NC(=O)C2CCCCC2)CC1)Nc1ccccc1
  -12%	-3%
> COc1ccc(OCCCC(=O)OC(C)C(=O)Nc2ccccc2[N+](=O)[O-])cc1 (configuration not stated)
  -7%	-8%
> CCOC(=O)C1CCN(c2csc3ccc(C)cc3c2=O)CC1
  2%	2%
> O=C1c2ccccc2C(=O)N1CCSc1nncs1
  -18%	-10%
> COC(=O)c1oc2ccc(Br)cc2c1NC(=O)CN1CCN(C)CC1
  .	-7%
> Cc1nc2c(-c3ccccc3)c(C)nn2c(C)c1CC(=O)O
  -13%	-2%
> COc1ccc(S(=O)(=O)N2CCCCC2)cc1NC(=O)Cc1sc(C)nc1-c1ccc(F)cc1
  -2%	-14%
> CC(NC(=O)/C(C#N)=C/c1ccc(N2CCOCC2)cc1)c1ccccc1 (configuration not stated)
  -15%	-3%

Given in markdown: 19 of the compounds above.
| smiles | Vaccinia mCherry | Vaccinia Venus |
| --- | --- | --- |
| CCCCCCCCN1C(=O)[C@H](CC(=O)NCc2ccc(C)o2)C[C@@]2(C(=O)OC)CC(C)(C)CC=C12 | -18% | -26% |
| c1ccc2c(c1)OCC(CNc1ncnc3sccc13)O2 (configuration not stated) | ? | -21% |
| CC(C)(C)OC(=O)CNC(=O)c1nc[nH]c1C(=O)N1CCc2ccccc2C1 | i | -13% |
| CCSc1ncc(/C=N/Nc2ccc(F)cc2)n1C | . | 0% |
| CCOC(=O)c1cccc(NC(=O)c2ccc3nc(Cc4ccccc4)oc3c2)c1 | -20% | -21% |
| COc1cc(NC(=O)CCCN2C(=O)CCn3nc(-c4cn(C)c5ccccc45)cc32)cc(OC)c1 | -24% | -21% |
| COc1ccc(Cl)cc1NC(=O)c1[nH]c(C)c(C(C)=O)c1C | -3% | -16% |
| CN(C)S(=O)(=O)c1cccc(C(=O)OCC(=O)N2c3ccccc3NC(=O)C2(C)C)c1 | -10% | 3% |
| N#CCOC(=O)C1CCN(S(=O)(=O)c2ccc3c(c2)OCCO3)CC1 | -15% | -4% |
| CCCCNC(=O)c1onc(CS(=O)(=O)c2ccccn2)c1C(=O)NCCCC | -14% | -4% |
| Cc1ccc2nc3c(cc(C(=O)NCCN4CCOCC4)c(=N)n3CCCN3CCOCC3)c(=O)n2c1 | -8% | -7% |
| O=C(CCSCCc1ccccn1)Nc1ccccn1 | . | -11% |
| COC(=O)C1=C(C)N(C)C(C)=C(C(=O)OC)C1c1ccc(F)c(Br)c1 | . | -9% |
| COc1cc(C(=O)Nc2ccc(-n3cnnn3)c(C)c2)cc(OC)c1OC | i | -10% |
| O=c1c(-c2ccccc2)nc2ccccc2n1C(c1ccccc1)c1nc2ccccc2[nH]1 (configuration not stated) | -28% | -12% |
| O=C1OCc2ccc(NC(=O)c3c(F)cccc3Cl)cc21 | -17% | -4% |
| Cc1cccc(C)c1NC(=O)CSc1nc(C2CC2)nc2ccccc12 | 1% | -8% |
| CCOc1ccc(C2C(C(N)=O)=C(C)Nc3nc(-c4cccc(Cl)c4)nn32)cc1OC (configuration not stated) | -12% | -18% |
| COC(=O)c1cc(NC(=O)c2ccccc2F)cc(C(=O)OC)c1 | i | -9% |

(listing goes on)
Value order: Vaccinia mCherry	Vaccinia Venus
> COc1ccc(CCC(=O)NCCc2cn3c(C)csc3n2)cc1
  -3%	-21%
> COc1ccc(NC(=O)CSc2nc(-c3cccs3)cc(C(F)(F)F)n2)c(OC)c1
  -17%	-5%
> CC(C)Oc1ccc(CNC(=O)CCCN2C(=O)c3cccnc3Oc3ccc(Cl)cc32)cc1
  -14%	-13%
> COc1ccc(NC(=O)Cn2c(=O)cc(C)c3c(C)nn(-c4cccc(Cl)c4C)c32)cc1OC
  16%	7%
> CCN(CC)c1ccc(N=Nc2ncn[nH]2)cc1
  -18%	-9%
> CCCNC(=O)N1[C@H]2CC[C@@H]1C(C(=O)OC)=C(c1ccc3ccccc3c1)C2
  -7%	-21%
> CCOc1cc(C(=S)N2CCOCC2)ccc1OS(=O)(=O)c1ccc(OC)cc1
  -23%	-6%
> O=[N+]([O-])c1cc(Cl)c2cccnc2c1O
  28µM*	?
> CC1CCN(C(=S)NC2CC3CCC2C3)CC1 (configuration not stated)
  -1%	-12%
> COc1ccc(CC(=O)Nc2ccc3nc(Nc4ccc(OC)cc4)cc(C)c3c2)cc1
  -25%	-18%
> CCOC(=O)C1CCC(CN(Cc2ccccc2)S(=O)(=O)c2ccc([N+](=O)[O-])cc2)CC1 (configuration not stated)
  -5%	-11%
> N#CC(=C1CCCC1)c1nc(-c2ccc(Cl)cc2)cs1
  .	-15%
> COc1ccc(CCNC(=O)C2CCN(S(C)(=O)=O)CC2)cc1OC
  -22%	-6%
> COc1ccc(NS(=O)(=O)c2cc(NC(=O)c3ccc(=O)[nH]c3)ccc2N2CCOCC2)cc1
  5%	-11%
> CC1=C2CCC3C4CCC(=O)[C@@]4(C)CCC3[C@]2(C)CCC1=O (some centres not stated)
  i	-12%
> O=C(CSc1nnc(C2CC2)n1-c1ccccc1)NCCc1ccccc1
  .	-8%
> CCOc1cccc(-c2c(C(=O)N/N=C/c3ccoc3)nnn2-c2nonc2N)c1
  -23%	-13%
> Cc1cccc(Nc2ccc3nonc3c2[N+](=O)[O-])c1C
  -12%	-1%
> CC(=O)c1ccc(OCCCC(=O)NC2CCCc3ccccc32)cc1 (configuration not stated)
  i	-13%
> Cc1ccc(S(=O)(=O)N(C)CC(=O)NCCc2c[nH]c3ccccc23)cc1
  -20%	-25%
> CCOC(=O)c1sc(N)nc1C(C)C
  .	-23%
> COc1cccc(CN(C)C(=O)c2csc3c2CCCC3)c1OC
  i	-5%
> COCCN1C(=O)CCC1(C)C(=O)Nc1ccc2c(c1)OCCO2 (configuration not stated)
  15%	-12%
> Cc1cc(C(=O)NCC(=O)Nc2c(C)cccc2C)c(C)o1
  -16%	-3%
> CCOC(=O)c1ccc(Nc2nc3ccccc3n3c(C)nnc23)cc1
  -15%	-10%
> NC(=O)c1c(NC(=O)c2cc(-c3ccc(F)cc3)on2)sc2c1CCCC2
  2%	-2%
> C[C@@H]1CC[C@H](Cc2ccc(-n3cccc3)cc2)N1C(=O)OC(C)(C)C
  -11%	-23%
> Cc1ccc(S(=O)(=O)N2C[C@]3(O)C[C@@H]4C(=O)N(c5ccccc5)C(=O)[C@@H]4C[C@]3(OC(=O)NCc3ccccc3)C2)cc1
  -12%	-5%
> Cc1cccc(-c2cc3nc(-c4ccccc4)cc(=O)n3[nH]2)c1
  -22%	-13%
